Rango dissoc inh: inhibition of RanGTP-driven Rango-importin beta dissociation; Biochemical FRET Rango-importin beta, RanGTP-induced dissociation; hit rate 0.071% among 340,000; Potency, µM (highest dose often 46.1 µM), for inactives: at the highest dose activity change, negative = inhibition; O95149+P62826; active means falling FRET ratio curve, often poorly fitted, with flat reads before Ran was added; inconclusive means other falling curves, or compound fluorescence or quenching; inactive means flat or rising ratio curve;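 also: potency is read from the fitted curve at half-maximal effect; % of control where 0% means no effect; nearly all actives have a fitted effect of over 45% in size; -100% = wells without RanGTP and RCC1; the record marks most hits as doubtful in a second field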
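Two FRET readings bracket the reaction: one 5 min after compound meets Rango–importin beta, another 45 min after RanGTP-RCC1 (0.6 uM Ran, 0.2 uM RCC1, 2 mM GTP) is added. Only the second defines inhibition.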
GLA inh pH 4.5: blocks human alpha-galactosidase A at pH 4.5; P06280; purified enzyme, 4-MU-alpha-Gal fluorescence, pH 4.5; activity change, negative = inhibition, % at 105 µM; 230,000 tested, under 10 active; AID 1467; inconclusive = small, poorly fitted or top-dose-only inhibition, or a rising curve; inactive = flat fitted curve, though single readings scatter; no compound was filed as active;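 also: 0% = full activity with enzyme and -100% = basal without enzyme; dose as in the result columns while the protocol names 77 µM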
Target sequence (P06280 whole entry, looked up): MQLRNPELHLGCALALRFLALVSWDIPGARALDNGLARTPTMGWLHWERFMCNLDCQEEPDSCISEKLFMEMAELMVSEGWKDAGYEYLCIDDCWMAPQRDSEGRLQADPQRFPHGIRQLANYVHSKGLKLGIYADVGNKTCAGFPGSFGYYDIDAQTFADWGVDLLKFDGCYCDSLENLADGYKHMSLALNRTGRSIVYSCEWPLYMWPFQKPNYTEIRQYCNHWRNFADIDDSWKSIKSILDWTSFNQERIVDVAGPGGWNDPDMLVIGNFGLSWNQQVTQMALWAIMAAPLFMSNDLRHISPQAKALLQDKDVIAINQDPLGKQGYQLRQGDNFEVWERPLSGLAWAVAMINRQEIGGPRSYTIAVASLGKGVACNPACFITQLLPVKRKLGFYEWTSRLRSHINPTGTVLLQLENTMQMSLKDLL
Rango-impB inh: Rango-importin beta binding inhibition | Potency, µM (top dose mostly 92.2 µM), for inactives: top-dose inhibition of complex formation | Rango CFP/YFP FRET sensor + importin beta, 45 min | Q14974 | hit rate 0.031% among 340,000 | AID 540263; active = rising FRET ratio curve, often small or poorly fitted; inconclusive = mostly compound fluorescence or quenching in the first reads; inactive = flat curves in all reads;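 also: potency is read from the fitted curve at half-maximal effect; 0% = DMSO wells and 100% = buffer wells lacking importin beta; nearly all actives have a fitted effect of over 15% in size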
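Inhibition scored from the CFP 486 nm/YFP 530 nm FRET ratio 45 min after adding 0.125 microM importin beta to 50 nM Rango biosensor preincubated 5 min with compound (room temperature, PBS with DTT, Tween-20, BSA). No-importin wells as positive control.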
miR-21 reporter: raises the signal of a miR-21 reporter | HeLa miR-21 FLuc reporter, luciferase, 48 h | Potency, µM (highest dose often 38.3 µM), for inactives: at the top dose reporter change, positive = more light | 340,000 tested, under 10 active; active = well fitted rising curve with a large enough effect; inconclusive = small, poorly fitted or top-dose-only effect; inactive = no such curve, though single readings can be large or run the other way;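 also: % of control where 0% means no effect; miR-21 action dims this reporter so a rising signal means less miR-21 action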
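Compounds were titrated across several concentrations (up to approximately 40 uM) and incubated 48 hours with HeLa miR-21-FLuc reporter cells (miR-21 target sequence downstream of FLuc, endogenous miR-21). Readout was firefly luciferase luminescence after lytic detection reagent.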
Starred values were filed as active, the others as inactive; ? = inconclusive; . = not tested or not shown; [ ] = dose if it differs, or a comment. Only part of the results is shown. The share of hits here may be higher or lower than overall.

Start of the listing, in advance (two entries):
structure,Rango dissoc inh,GLA inh pH 4.5,Rango-impB inh,miR-21 reporter
CCOC(=O)C1(Cc2cccc(Cl)c2)CCCN(C2CCN(C(C)=O)CC2)C1 (stereo unspecified),-3%,.,?,1%
CC1(C)CC(=O)C(C2NCCc3ccccc32)=C(O)C1 (stereo unspecified),1%,3,-3.1%,-1%

The list itself, from the first entry:
structure,Rango dissoc inh,GLA inh pH 4.5,Rango-impB inh,miR-21 reporter
CCOC(=O)C1(Cc2cccc(Cl)c2)CCCN(C2CCN(C(C)=O)CC2)C1 (stereo unspecified),-3%,.,?,1%
CC1(C)CC(=O)C(C2NCCc3ccccc32)=C(O)C1 (stereo unspecified),1%,3,-3.1%,-1%
COc1ccc2c(COC(=O)CNS(=O)(=O)c3ccccc3)cc(=O)oc2c1,-1%,.,-0.6%,.
CC(=O)Nc1ccc(S(=O)(=O)Nc2cccc3[nH]ncc23)cc1,-6%,4,0.8%,8%
COc1ccc(S(=O)(=O)N2CCCCC2)cc1NC(=O)CCc1cc(OC)c(OC)c(OC)c1,22%,.,-2.3%,.
O=C(Nc1cccc(Br)c1)c1ccn[nH]1,-10%,-2,1.5%,-48%
CCOC(=O)[C@H]1[C@H]2COc3ccc(OC)cc3[C@@H]2N2C(=O)c3cc(C)ccc3NC(=O)[C@@]12C,15%,.,0.3%,.
COc1ccc(Cc2nnc3sc(SCC(=O)Nc4ccccc4)nn3c2=O)cc1OC,-3%,.,0.0%,.
Cn1c(NCCN2CCOCC2)nc2c1c(=O)n(Cc1cccc(Cl)c1)c(=O)n2C,11%,8,2.4%,-1%
O=C(NCCCN1CCOCC1)c1ccc(S(=O)(=O)Nc2cccc(C(F)(F)F)c2)cc1,-8%,.,0.0%,.
Cc1nc2c(=O)[nH]c(=S)n(C)c2nc1C,-1%,-2,-0.3%,-2%
CC(C)c1ccc(NC(=O)CSc2nnc(CN3CCOCC3)n2C)cc1,-10%,.,1.4%,-1%
Clc1cccc(-c2nnc(-c3ccccc3)o2)c1,25%,-8,0.7%,-30%
COc1cccc(C(c2nnnn2CS(=O)(=O)c2ccc(C)cc2)N2CCN(C)CC2)c1OC (stereo unspecified),-1%,-8,-1.0%,-2%
Cc1nn(C(=O)Cn2ccc([N+](=O)[O-])n2)c(C)c1Cl,15%,.,4.0%,-1%
COc1ccc(CN2CCN(C(=O)c3ccc(S(=O)(=O)N4CCCCCC4)cc3)CC2)cc1F,?,.,-1.6%,.
Cc1cc(C)cc(C(=O)OCC(=O)NC2CCCC2)c1,-3%,.,5.7%,-2%
CCOC(=O)Cc1csc(NC(=O)CSc2nc(N)c3c(C)c(C)sc3n2)n1,14%,-3,4.1%,4%
CC(C)(C)OC(=O)N1CCCN(C(=O)Nc2ccc(C(F)(F)F)cc2)CC1,5%,3,3.9%,2%
CCOC(=O)c1c(CN2CCOCC2)n(-c2ccccc2)c2cc(Br)c(OC)cc12,0%,-4,5.5%,0%
COc1cc(OC)c(OC)cc1/C=C/C(=O)c1ccc(NS(=O)(=O)c2ccc(C)cc2)cc1,?,-10,?,-13%
CCN(C(=O)CSc1nc2cc(C(=O)O)ccc2c(=O)n1Cc1ccccc1)c1ccccc1,1%,.,5.7%,1%
CC1(c2ccc3c(c2)OCO3)NC(=O)N(CC(=O)Nc2ccccc2)C1=O (stereo unspecified),23%,.,-0.8%,.
FC(F)c1nc2ccccc2[nH]1,3%,-26,3.0%,-6%
Cn1c(=N)n(CC(=O)c2ccc(Cl)c(Cl)c2)c2ccccc21,4%,.,3.9%,24%
Cc1oc2c(CN3CCC(C)CC3)c(O)ccc2c(=O)c1-c1ccccc1,-1%,.,0.6%,0%
O=C(CCn1c(=O)[nH]c2ccccc2c1=O)NCCCN1CCN(c2cccc(Cl)c2)CC1,-12%,-3,5.4%,0%
CC/C(=N/Nc1ccccc1)c1cnnc(SC)n1,0%,-7,-1.3%,-12%
NS(=O)(=O)c1ccc(-c2cccc(/C=C3\SC(=O)NC3=O)c2)cc1,4%,.,-0.1%,8%
Cc1ccccc1C(=O)c1c[nH]c(C(=O)NCc2ccco2)c1,4%,2,0.7%,-5%
O=C(Nc1ccc(Oc2ccc(NC(=O)c3ccco3)c(NC(=O)c3ccco3)c2)cc1)c1ccco1,2%,-14,-2.7%,-8%
Cc1ccc(C(=O)NCC(=O)NCC(c2ccco2)N2CCCCC2)cc1C (stereo unspecified),-3%,.,?,.
Cc1cc(C(=O)C(=O)O)c(C)n1-c1ccc(Cl)cc1,17%,2,0.8%,-6%
COc1ccc(/C=C/C(=O)OCC(=O)N2CC(=O)Nc3ccccc32)cc1S(=O)(=O)N1CCOCC1,22%,-2,2.4%,15%
COc1ccc(/C=C/C(=O)NCCCNC(=O)/C=C/c2ccc(OC)c(OC)c2)cc1OC,7%,.,2.7%,.
COc1cc(OC)cc(C(=O)O/N=C(\N)c2cccc(C)c2)c1,-1%,.,0.6%,-2%
COc1ccc(-n2nnc3c(=O)n(CC(=O)Nc4cc(C)on4)cnc32)cc1OC,-10%,10,-0.9%,-7%
CCC(Cc1ccccc1)NCc1c(C(=O)O)c(C)n(Cc2ccccc2)c1C (stereo unspecified),-8%,-5[21.1 µM],-1.6%,3%
Cc1ccc(NC(=O)C2CCN(S(=O)(=O)c3cnc[nH]3)CC2)nc1,-16%,-4,-3.2%,-3%
C(=NOCCc1ccccc1)c1ccncc1,1%,.,2.2%,.

Entries shown so far that contain fluorine (4):
structure,Rango dissoc inh,GLA inh pH 4.5,Rango-impB inh,miR-21 reporter
O=C(NCCCN1CCOCC1)c1ccc(S(=O)(=O)Nc2cccc(C(F)(F)F)c2)cc1,-8%,.,0.0%,.
COc1ccc(CN2CCN(C(=O)c3ccc(S(=O)(=O)N4CCCCCC4)cc3)CC2)cc1F,?,.,-1.6%,.
CC(C)(C)OC(=O)N1CCCN(C(=O)Nc2ccc(C(F)(F)F)cc2)CC1,5%,3,3.9%,2%
FC(F)c1nc2ccccc2[nH]1,3%,-26,3.0%,-6%

Remaining list, next part:
structure,Rango dissoc inh,GLA inh pH 4.5,Rango-impB inh,miR-21 reporter
CN(CC(=O)Nc1ccc(Cl)c(C(F)(F)F)c1)C(=O)c1cccs1,-26%,.,1.2%,.
O=S(=O)(c1ccc2c(c1)OCCO2)N(Cc1ccc(F)cc1)Cc1nnc(-c2cccs2)o1,9%,2,2.5%,0%
CN(C)c1ccc(/C=N/N(CCO)C2=NS(=O)(=O)c3ccccc32)cc1,?,.,?,0%
CC(C)c1nc2ccccc2n1CCC(=O)O,12%,0,-1.1%,-5%
Cc1ccc(NS(=O)(=O)c2ccc(NC(=O)C(C)Sc3ccc(Cl)cc3)cc2)c(C)c1 (stereo unspecified),8%,-10,5.4%,6%
O=C(c1ccc(Cl)cc1)C1CCCN(C(=O)/C=C/c2ccccn2)C1 (stereo unspecified),-2%,8,4.0%,-4%
CSc1nc2ccc(NC(=O)c3cccs3)cc2s1,-12%,.,-4.4%,.
Cc1ccc(C2=Nc3c(ccc4ccccc34)C(c3ccncc3)=NN2)cc1,13%,-3,0.3%,14%
CSc1ccccc1OCc1cc(C(=O)N2C[C@H]3CC[C@H]2C3)no1,2%,.,-1.1%,-38%
Cn1ncc(Br)c1NC(=O)c1ccco1,-7%,.,0.4%,0%
Cc1ccc(NC2(C#N)CCCC2)cc1,16%,.,14%,.
Cc1nc(-c2cccc(S(=O)(=O)N3CCCCCC3)c2)cs1,0%,-4,-0.6%,-4%
CCCOc1ccc(Cc2c(Cl)nc(SC)nc2NC)cc1,5%,-1,0.5%,17%
Cc1ccc(C(C(=O)NCC2CCCO2)N(C(=O)c2snc(C(N)=O)c2N)c2ccc(C(C)C)cc2)o1 (stereo unspecified),-7%,.,0.2%,-1%
O=C(Nc1ccc(N2CCCC2)cc1)c1cc(Cl)ccc1Cl,-8%,.,1.3%,-9%
CCOCCn1c(C(C)O)nc2ccccc21 (stereo unspecified),22%,-1,-1.7%,-11%
O=C(N/N=C/c1cccc(Oc2ccccc2)c1)c1ccc(O)cc1O,9%,.,-2.6%,-28%
Cc1cc(C)n(C(=O)CCC2COc3ccccc3O2)n1 (stereo unspecified),-22%,-3,-0.7%,-4%
CC(=O)c1ccc(OC(C)c2nc3ccccc3s2)cc1 (stereo unspecified),-5%,.,-3.1%,-55%
CCN1C[C@@H]2[C@@H]3C(=O)N(C)C(=O)[C@@H]3[C@](Cc3ccccc3)(C1=O)N2C(=O)c1ccc(C)cc1,47%,.,-5.2%,.
c1ccc(Nc2ccc3c4c(cccc24)CC3)cc1,?,0,2.4%,-11%
Cn1c(=O)c2[nH]c(NN=Cc3cccc(Br)c3)nc2n(C)c1=O,18%,.,1.5%,.
CC(=O)OCC1OC(n2ccc3ccccc32)C(OC(C)=O)C(OC(C)=O)C1OC(C)=O (stereo unspecified),-16%,4,-3.4%,0%
Cc1cc(Cc2cc(C)c(N)cc2C)c(C)cc1N,-8%,-1,0.9%,2%
CC1CCC/C(=C\c2ccc(O)cc2)C1=O (stereo unspecified),-14%,.,3.6%,.
O=C(NC1CCCCC1)C1CCN(S(=O)(=O)N2CCCCCC2)CC1,1%,5,-2.2%,2%
O=c1cc(N2CCc3ccccc3C2)[nH]c(=O)n1C1CCCCC1,-25%,5,0.6%,0%
NNC(=S)Nc1ccc(C(F)(F)F)cc1Cl,19%,-9,-2.1%,0%
CCC(=O)NC(Nc1nc2ccc(C)cc2s1)(C(=O)OC)C(F)(F)F (stereo unspecified),45%,5,0.0%,-3%
Brc1ccc(-c2noc(-c3ccccn3)n2)o1,1%,.,15%,-17%
Cc1ccc2ccc3cccnc3c2n1,-10%,.,-0.6%,.
CCC(=O)NC(=S)Nc1ccc(-c2nc3ccc(C)cc3s2)cc1,-5%,9,1.9%,-68%
CCCCN(C)CCCNC(=O)CN1N=C(c2ccc(Cl)cc2)CCC1=O,-5%,.,-2.8%,0%
CCOC(=O)N1CCN(C(=O)c2ccc3c(SCC(=O)O)c4c(nc3c2)CCC4)CC1,-7%,-19,0.0%,-2%
C[C@H](NC(=O)[C@@H]1Cc2ccccc2CN1C(=O)OC(C)(C)C)C(=O)NC1CCCCC1,-11%,.,1.0%,0%
COC(=O)c1ccc(OCC(=O)c2ccc(O)cc2O)cc1,11%,11,-0.7%,-36%
CCN(CC)C(=O)c1sc(NC(=O)c2ccncc2)c(C(=O)OC)c1C,-6%,-8,-2.7%,-2%
Cc1ccc(S(=O)(=O)N2CCCC2C(=O)Nc2nc3ccccc3s2)cc1 (stereo unspecified),2%,-5,1.9%,-2%
O=C(CSc1ccc(-c2ccc(F)cc2)nn1)N1CCN(c2ccccc2)CC1,0%,0,-1.3%,-3%
COc1cc(/C=N/NC(=O)C2COc3ccccc3O2)ccc1O (stereo unspecified),0%,-1,-1.0%,2%
CC(=O)N[C@@H](Cc1c[nH]c2ccccc12)C(=O)OCC(=O)Nc1ccc(S(=O)(=O)N(C)C)cc1,8%,-9,4.6%,0%
O=C(CC1S/C(=N/N=C/c2cccnc2)NC1=O)Nc1ccccc1 (stereo unspecified),-1%,-11,-2.6%,-4%
CCOc1cc(N2CCOCC2)c(OCC)cc1NC(=O)c1ccc(OC)cc1,-1%,3,1.8%,-2%
COc1ccc(C2CC(c3ccccc3)=NN2C(=O)COC(=O)c2cccc(S(=O)(=O)N(C)C)c2)cc1 (stereo unspecified),-3%,-3,?,-21%
Cc1cc(C(=O)Nc2cnn(Cc3ccc(Cl)cc3Cl)c2)no1,1%,1,0.3%,-20%
COc1cccc(NC(=O)CCP(C)(=O)O)c1,-12%,8,1.0%,-1%
